Source: PubChem (several laboratories)
Rce1 inhib: yeast Rce1p protease inhibitors, primary screen, biochemical, fluorescence, cell-free homogeneous; 0.27% of 290,000 active; AID 2563, 2010; calls only; yeast membranes, quenched prenylated peptide cleavage fluorescence;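 active means fall in fluorescence gain of 50% or more versus controls, with final raw signal at or below 3038400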;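 further: plate controls were neutral control wells for no effect and wells lacking membranes for full effect; tested at 10 µM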
Target sequence (Q03530 whole entry, looked up): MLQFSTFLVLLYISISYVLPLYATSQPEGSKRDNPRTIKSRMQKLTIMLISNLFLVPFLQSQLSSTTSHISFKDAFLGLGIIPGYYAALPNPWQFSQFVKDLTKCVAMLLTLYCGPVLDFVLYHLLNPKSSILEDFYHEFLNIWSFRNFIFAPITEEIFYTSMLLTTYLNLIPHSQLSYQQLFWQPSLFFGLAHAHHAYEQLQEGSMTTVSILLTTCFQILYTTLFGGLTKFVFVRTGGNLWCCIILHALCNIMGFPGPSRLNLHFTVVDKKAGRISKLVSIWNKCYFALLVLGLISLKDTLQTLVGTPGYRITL
eIF4H FP inh: human eIF4H binding inhibitors, primary screen, translation initiation inhibitor project, biochemical, uHTS, fluorescence polarization; 0.94% of 290,000 active; inhibition, % at 35 µM; Eukaryotic translation initiation factor 4H (Homo sapiens), Q15056; eIF4H fluorescence polarization binding assay; AID 2012, 2009;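 active means 50% or more with normal probe brightness, or confirmed in later tests; about a fifth of its hits are not listed in these tables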;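 further: calls also rest on retests at 20 µM and on dose response follow-up; 0% = protein and probe with vehicle and 100% = probe without protein; strong numbers were not always called active; many hits fall short of the cut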
HIV Env fusion: inhibitors of HIV-1 Env-driven cell-cell fusion, primary screen, HeLa-JRFL effector, CEM21 target cells, luciferase. inhibition, % at 12.3 µM. 1.1% of 360,000 active. AID 651610, 2012;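 active means mean replicate inhibition score of at least 50 and every replicate individually at or above 50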;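 further: 0% = plate neutral controls and 100% = maraviroc near 300 nM; one replicate is shown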
CSC inhib: cancer stem cell viability inhibitors, primary screen, luminescence; inhibition, % at 7.5 µM; 1.1% of 300,000 active; cancer stem cell-like cells viability;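 active means mean at 75% or more and at least half the replicates too; tested in HMLE shEcad cells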;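 further: 0% = median of negative and 100% = median of positive control wells; the first replicate is given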
MT1-MMP act inh: blockers of MT1-MMP proenzyme processing, primary screen, HT1080 RFP-PRO-GFP cells, GFP/RFP fluorescence. GFP/RFP ratio change, % at 20 µM. Matrix metalloproteinase-14 (Homo sapiens), P50281. GFP/RFP ratio fluorescence, overnight; percent of plate control window, DMSO zero. 0.061% of 360,000 active;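 active means GFP/RFP ratio change of at least 30% with cell ATP level not reduced by more than half and red fluorescence within 50% of control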; further: strong numbers were not always called active
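system = RFP-PRO-GFP reporter HT1080 cells | dosing = 20 µM single dose, 1% DMSO | timing = overnight cell settling, then overnight compound exposure, 37 °C, 5% CO2 | read-out basis = GFP/RFP fluorescence ratio | controls = DMSO and RFP-L50D-GFP cell wells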
PABP polyA inh: PABP poly(A) RNA binding inhibitors, primary screen, biochemical, fluorescence polarization, uHTS. Polyadenylate-binding protein 1 (Homo sapiens), P11940. inhibition, % at 35 µM. 1% of 290,000 active;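 active means 50% or more with normal probe brightness, or confirmed in later tests; about a fifth of its hits are not listed in these tables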;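 further: calls also rest on retests at 20 µM and on dose response follow-up; controls were probe without protein and protein plus probe with vehicle; some compounds called inactive have numbers as strong as hits; many hits fall short of the cut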
UUG fidelity: modulators of yeast start codon fidelity, primary screen, whole organism, S. cerevisiae, single point, plate reader | S. cerevisiae UUG-firefly luciferase reporter, luminescence/redox ratio | activity score, % at 18.7 µM | 0.13% of 350,000 active | AID 602363, 2012;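 active means replicate mean at a twofold rise or more, about +100% in these data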;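 further: firefly luciferase made from a UUG start codon reports start codon fidelity; reporter light over untreated wells divided by growth signal over untreated wells; some hits fall short of that in this replicate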
MT1-MMP act inh RFP: recorded beside MT1-MMP act inh, whose call it bears; RFP signal change, %; measured here: RFP expression control read;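 0 = vehicle wells; hits needed this value within 50% of zero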
* marks the source's active call; other numbers are inactive results; i = inactive; . = no result given. Only part of the results is shown. The share of hits here may be higher or lower than overall.

SMILES	Rce1 inhib	eIF4H FP inh	HIV Env fusion	CSC inhib	MT1-MMP act inh	MT1-MMP act inh RFP	PABP polyA inh	UUG fidelity
Nc1c(Cl)cc(Cl)cc1C(=O)OCC(=O)N1CCOCC1	i	2.6	-10.6	-10.4	3.9	3.5	10.5	.
CCOc1c2ccc(C(=O)N[C@H](C)C3CCCCC3)cc2nn1CC	i	-4.4	5.7	-11.0	-0.6	2.3	-4.3	-15.0
O=C(NCCNc1ccc2ccccc2c1)c1cccn2c(=O)c3sccc3nc12	i	-3.8	.	35.8	.	.	-10.0	.
CCc1nnc(NC(=O)c2cc(S(=O)(=O)N(CC)CC)ccc2Cl)s1	i	10.0	.	-4.1	3.7	4.1	4.7	-2.3
COc1ccc(NC(=O)Cc2csc(NC(=O)Nc3ccccc3OC)n2)cc1	.	.	18.8	.	1.6	-0.2	.	-6.9
Cc1cccc(NC(=S)Nc2cccc3ccccc23)c1	i	-1.9	-10.6	6.5	0.5	4.8	12.4	-21.7
N#Cc1c(-c2cccnc2)c2c([nH]c1=S)CCCC2	i	-3.8	.	-9.1	-0.3	4.3	10.9	-14.7
CS(=O)(=O)c1ccc(-n2c(=O)n(Cc3ccccc3)c(=O)c3[nH]cnc32)cc1	i	-2.8	6.6	-3.6	3.9	3.3	0.3	-9.3
Cc1cccc(NS(=O)(=O)c2cccs2)c1	i	1.6	.	5.5	-0.4	7.1	-1.3	-39.8
COC(=O)c1cc(OC)c(OC)cc1NC(=O)CC1CCCCC1	i	-2.1	.	5.4	-0.5	-4.3	1.9	-16.6
Cc1ccc(NC(=O)CSc2nc(=O)n(CCN3CCOCC3)c3c2CCCC3)cc1	i	.	7.4	-3.9	-4.8	-0.4	.	.
COc1cc(/C=N\NC(=O)c2ccc(-c3ccccc3)cc2)cc(Br)c1O	i	-3.4	9.8	8.0	15.8	6.3	-16.7	-4.4
O=c1[nH][nH]c(-c2ccccc2)c1C=Nc1ccccc1Cl	i	-2.7	-15.3	-15.0	4.4	12.2	5.2	-19.7
Cn1c(SCc2ccccc2)nccc1=O	.	.	-14.4	.	3.7	-1.6	.	-3.4
Cc1cccc(/C=N/NC(=O)CC(=O)NCCc2ccccc2)c1	i	.	12.6	.	5.4	0.3	.	-10.0
O=C1c2cccnc2C(=O)N1c1ccccc1-c1ccccc1	.	8.5	-16.7	-12.9	9.0	2.9	-2.0	-18.3
COc1ccc(OCC(=O)N/N=C2/C=C(C)CC2)cc1	i	-1.8	11.0	9.7	-2.1	0.4	-7.3	.
NCCCCCNC(=O)c1[nH]cnc1C(=O)N[C@@H](Cc1ccccc1)C(=O)OCc1ccccc1	.	.	3.2	-11.2	2.0	0.0	.	11.0
CS(=O)(=O)N(CC(=O)NCc1cccnc1)C1CCCCC1	i	6.4	-10.0	-3.9	-6.4	-3.9	2.0	.
CCOc1ccc(-c2cccc(NS(=O)(=O)c3ccc([N+](=O)[O-])cc3)c2)nn1	i	.	3.4	-9.5	-0.4	-5.3	.	-7.6
Cc1ccc(CN2CCNC(=O)C2CC(=O)NCc2cc(C)n(C)n2)cc1 (configuration not stated)	i	5.0	6.7	6.6	-4.3	-0.7	11.7	0.0
CC(=O)c1c(C)[nH]c(C(=O)COC(=O)c2nccnc2N)c1C	.	.	.	3.8	-4.7	-4.7	.	-3.4
COc1ccc(NC(=O)c2ccco2)cc1NC(=O)c1c(OC)cccc1OC	i	7.9	13.4	-15.7	0.8	4.4	2.5	-3.8
O=C(O)CC1(CC(=O)Nc2ccc(Oc3cccc(C(F)(F)F)c3)nc2)CCCC1	i	3.5	-18.5	23.2	3.8	-0.8	2.8	5.0
CCOC(=O)/C(N=Nc1sc(C(=O)OC)c(C)c1C(=O)OCC)=C(\O)CCl	i	-12.6	-8.4	22.9	-2.2	-0.7	4.1	6.8

A second format for 9 compounds above:
The line under a structure holds: Rce1 inhib | eIF4H FP inh | HIV Env fusion | CSC inhib | MT1-MMP act inh | MT1-MMP act inh RFP | PABP polyA inh | UUG fidelity
Cc1cccc(/C=N/NC(=O)CC(=O)NCCc2ccccc2)c1
 : i | . | 12.6 | . | 5.4 | 0.3 | . | -10.0
O=C1c2cccnc2C(=O)N1c1ccccc1-c1ccccc1
 : . | 8.5 | -16.7 | -12.9 | 9.0 | 2.9 | -2.0 | -18.3
COc1ccc(OCC(=O)N/N=C2/C=C(C)CC2)cc1
 : i | -1.8 | 11.0 | 9.7 | -2.1 | 0.4 | -7.3 | .
NCCCCCNC(=O)c1[nH]cnc1C(=O)N[C@@H](Cc1ccccc1)C(=O)OCc1ccccc1
 : . | . | 3.2 | -11.2 | 2.0 | 0.0 | . | 11.0
CS(=O)(=O)N(CC(=O)NCc1cccnc1)C1CCCCC1
 : i | 6.4 | -10.0 | -3.9 | -6.4 | -3.9 | 2.0 | .
CCOc1ccc(-c2cccc(NS(=O)(=O)c3ccc([N+](=O)[O-])cc3)c2)nn1
 : i | . | 3.4 | -9.5 | -0.4 | -5.3 | . | -7.6
Cc1ccc(CN2CCNC(=O)C2CC(=O)NCc2cc(C)n(C)n2)cc1 (configuration not stated)
 : i | 5.0 | 6.7 | 6.6 | -4.3 | -0.7 | 11.7 | 0.0
CC(=O)c1c(C)[nH]c(C(=O)COC(=O)c2nccnc2N)c1C
 : . | . | . | 3.8 | -4.7 | -4.7 | . | -3.4
COc1ccc(NC(=O)c2ccco2)cc1NC(=O)c1c(OC)cccc1OC
 : i | 7.9 | 13.4 | -15.7 | 0.8 | 4.4 | 2.5 | -3.8

Continued:
SMILES	Rce1 inhib	eIF4H FP inh	HIV Env fusion	CSC inhib	MT1-MMP act inh	MT1-MMP act inh RFP	PABP polyA inh	UUG fidelity
CCc1ccc(N(C(=O)CCC(=O)Nc2cc(C)on2)C(C(=O)NC(C)(C)C)c2ccc(OC)cc2)cc1 (configuration not stated)	i	-5.4	11.6	-12.9	-2.3	-3.1	-6.2	-9.4
O=C(O)C(Cc1ccccc1[N+](=O)[O-])N1C(=O)c2ccccc2C1=O (configuration not stated)	.	.	14.3	.	1.2	6.0	.	-26.4
Cc1ccc2c(c1)-c1c(ssc1=S)C(C)(C)N2C(=O)c1ccco1	i	0.8	56.7*	48.2	-5.5	-12.3	-9.9	-24.2
Oc1c(Br)cc(C2N=C(c3ccccc3)NO2)cc1Br (configuration not stated)	i	-9.6	.	29.0	1.7	10.1	-5.7	-19.1
CCC(Sc1nc2ccsc2c(=O)n1Cc1ccc(C(=O)O)cc1)C(=O)Nc1ccc(C)c(Cl)c1 (configuration not stated)	i	14.3	11.1	-15.3	1.3	-8.9	4.6	-9.1
COc1ccc(S(=O)(=O)N2CC(C)OC(C)C2)cc1C(=O)N1CCCCC1 (configuration not stated)	i	-2.2	0.9	16.3	2.5	1.9	4.1	-13.5
CN1CCN(C(=O)c2cc(=O)c3cc(Cl)ccc3o2)CC1	i	-3.4	7.8	-14.2	-1.9	2.0	8.6	-13.4
Oc1ccccc1N=N/C(=N/Nc1ccccc1O)c1ccccc1	i	.	-19.5	18.1	2.8	2.1	.	-10.2
CCOc1ccc(OCCC(=O)OCC(=O)Nc2cc(S(=O)(=O)N3CCOCC3)ccc2C)cc1	i	.	.	15.0	3.9	3.6	.	-1.0
COc1ccc(-n2nc(C(=O)NCC(=O)N3CCCC3)c3ccccc3c2=O)c(OC)c1	i	2.6	-19.3	7.0	-4.4	0.8	14.4	-11.2
Cc1ccccc1C(=O)Nc1cccc(NC(=S)NC(=O)c2cccs2)c1	i	-2.4	.	20.3	1.1	-4.7	-5.9	-10.9
COC(=O)c1ccccc1NC(=O)C1CCCN(S(=O)(=O)c2ccccc2)C1 (configuration not stated)	i	5.8	.	.	0.2	-2.8	-3.0	.
Cc1ccc(S(=O)(=O)N(C)CC(O)Cn2c3ccccc3c3ccccc32)cc1 (configuration not stated)	i	13.5	.	5.7	-4.8	-13.8	-2.8	-3.8
CCS(=O)(=O)c1ccc2oc(Nc3cc(C)cc(C)c3)nc2c1	.	3.5	1.2	-0.5	7.4	2.4	-2.5	-14.9
CCn1cc(CNC(=O)c2cc(-c3ccccc3OC)nc3ccccc23)c(C)n1	i	-1.5	.	4.0	4.3	2.5	-1.6	-1.3
O=C(COC(=O)CCSc1ccc(Cl)cc1)NCCc1ccccc1	i	-8.6	.	2.5	-2.0	2.3	21.3	.
C[C@@H]1CN([C@@H](C)CO)C(=O)c2c(c3ccccc3n2C)-c2ccccc2CO[C@H]1CN(C)C(=O)[C@H](Cc1ccccc1)N(C)C	.	.	-75.3	.	-6.2	-2.2	.	1.3
COc1ccc(OC)c(/C=N/N2CCN(c3ccc(Cl)cc3)CC2)c1	i	0.4	1.4	2.9	5.7	4.1	3.8	-9.7
CC1CCCN(Cc2cccc(Oc3ccccc3)c2)C1 (configuration not stated)	i	-2.5	12.1	1.7	-2.2	2.0	-3.6	-11.0
COc1cc(CC(NC(C)=O)C(=O)NC2CCN(C(=O)c3cc(OC)c(OC)c(OC)c3)CC2)cc(OC)c1 (configuration not stated)	i	-7.7	-1.0	4.7	0.9	1.2	1.4	16.6
CCN1CCN(C(=O)C2CCN(Cc3nc(-c4cccc(Cl)c4)oc3C)CC2)CC1	i	0.8	-18.3	.	5.3	5.7	11.8	1.2
COc1cc(/C=C(/C#N)C(=O)NCCCc2ccccc2)ccc1OCC(=O)O	i	0.4	-19.7	-20.9	4.9	-0.8	45.5	-13.5
Cc1ccc(NC(=O)CSc2nc(-c3ccco3)cc(C(F)(F)F)n2)cc1C	.	-6.0	55.8*	.	-16.7	-17.3	2.6	-7.3
COc1cc(-c2cc(C(=O)OCC(=O)NC3CC3)c3ccccc3n2)cc(OC)c1OC	.	.	-3.8	-3.3	7.8	1.5	.	16.0
O=C(CSc1nnc(NC2CCCCC2)s1)Nc1ccc(N2CCOCC2)cc1	i	-6.9	.	-3.3	12.8	7.2	-4.0	-17.7
SMILES	Rce1 inhib	eIF4H FP inh	HIV Env fusion	CSC inhib	MT1-MMP act inh	MT1-MMP act inh RFP	PABP polyA inh	UUG fidelity
CC(CNC(=O)C1CCCCC1C(=O)O)c1ccccc1 (configuration not stated)	i	-4.3	.	-0.1	-2.5	1.5	4.6	-13.1
CCOC(=O)c1csc(NC(=O)c2cc(=O)c3ccccc3o2)n1	i	-0.7	-24.0	-3.8	3.7	0.6	6.8	.
c1ccc(CNc2nc(NCC3CC3)nc3cc(-c4ccccc4)sc23)cc1	.	.	-14.8	.	1.6	-14.1	.	-12.8
OC(c1ccc(F)cc1)c1nc(-c2ccncc2)cs1 (configuration not stated)	.	.	5.2	.	6.8	-24.6	.	-10.6
Cc1cccc(Nc2ncc3c(n2)CC(C)CC3=O)c1 (configuration not stated)	i	-5.1	.	-5.9	5.3	0.1	6.3	-5.2
O=C(C1CCC1)N1CCc2cc(S(=O)(=O)NCCN3CCN(c4ccccc4F)CC3)ccc21	i	-2.0	.	13.3	3.0	-11.6	-6.4	4.1
COc1cc(C(=O)O)nc2ccc([N+](=O)[O-])cc12	i	-6.7	5.6	-13.1	-3.8	-0.1	6.6	-6.5
Cc1ccc(C)c(NCCCCCCCC(=O)O)c1	.	.	0.7	.	4.0	6.8	.	0.1
COc1ccc(CC(=O)NNC(=O)c2ccc(Br)s2)cc1OC	.	.	-16.8	-11.9	-1.1	-1.2	.	-0.3
